D2 agonist – Beta-Arrestin HTS for Positive Allosteric Modulators of the Human D2 Dopamine Receptor: Agonists | activation, % (no concentration beside the values) | DiscoveRx PathHunter D2 beta-arrestin, luminescence, 90 min; 100% = 57 uM dopamine signal | AID 624465, 2012 | D(2) dopamine receptor (Homo sapiens), P14416 | 360,000 compounds, 0.084% hits; in the data active = activation above about 40%; inconclusive = about 15% to 40%; inactive = below about 15%; also: compound concentration not given in the record; the text of the record calls up to 30% inactive
Target sequence (P14416 whole entry, looked up): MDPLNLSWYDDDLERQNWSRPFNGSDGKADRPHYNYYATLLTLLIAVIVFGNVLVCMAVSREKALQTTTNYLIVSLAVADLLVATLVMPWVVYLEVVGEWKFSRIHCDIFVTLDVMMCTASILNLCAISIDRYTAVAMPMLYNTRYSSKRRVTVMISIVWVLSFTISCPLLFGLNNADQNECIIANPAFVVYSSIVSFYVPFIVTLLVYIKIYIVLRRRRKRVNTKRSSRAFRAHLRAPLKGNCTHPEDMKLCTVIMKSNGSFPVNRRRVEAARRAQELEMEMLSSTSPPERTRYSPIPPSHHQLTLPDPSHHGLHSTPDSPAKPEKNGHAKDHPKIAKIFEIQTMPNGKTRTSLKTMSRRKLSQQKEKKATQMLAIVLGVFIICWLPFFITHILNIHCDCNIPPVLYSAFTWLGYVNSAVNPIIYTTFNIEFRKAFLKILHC
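DiscoveRx PathHunter D2 beta-arrestin cells (2,100/well) attached overnight, then compound-stimulated 90 min at 37 C in HBSS/10 mM HEPES/0.1% Tween-20 buffer; beta-galactosidase complementation read by luminescence after 1 h at ambient temperature. Dopamine 57 uM final (EC100) as control.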
Six1-Eya2 inh – qHTS Assay for Inhibitors of the Six1/Eya2 Interaction; Homeobox protein SIX1 (Homo sapiens) + Protein phosphatase EYA2 (Homo sapiens), …; AlphaScreen GST-Six1/His-Eya2 binding, biochemical; stronger effect = lower value; control for the full effect not named in the record; activity change, % (concentration not given with the values); 360,000 compounds, 0.56% hits; AID 651725, 2012; in the data active = activity change below about -65%; inconclusive = about -30% to -65%; inactive = above about -30%; also: % is scaled to controls: 0 for no effect and ±100 for the full control effect
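AlphaScreen with GST-Six1 and His-Eya2 (5X mix: 250 nM and 500 nM), glutathione donor and nickel acceptor beads; buffer 50 mM Tris pH 8.0, 300 mM NaCl, 1 mM TCEP; 1 h at 37 C in the dark.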
TRPML1 ag – qHTS for Agonists of the Human Mucolipin Transient Receptor Potential 1 (TRPML1). Mucolipin-1 (Homo sapiens), Q9GZU1. TRPML1-expressing cells, Ca2+ dye fluorescence, FDSS; host cell line not named in the record; reference of the full effect not given here. activation, % (concentration not given with the values). 410,000 compounds, 0.12% hits; in the data active = activation above about 50%; inconclusive = about 30% to 50%; inactive = below about 30%; also: 0% is about no effect; the text of the record puts the active cut at 80%
Target sequence (Q9GZU1 whole entry, looked up): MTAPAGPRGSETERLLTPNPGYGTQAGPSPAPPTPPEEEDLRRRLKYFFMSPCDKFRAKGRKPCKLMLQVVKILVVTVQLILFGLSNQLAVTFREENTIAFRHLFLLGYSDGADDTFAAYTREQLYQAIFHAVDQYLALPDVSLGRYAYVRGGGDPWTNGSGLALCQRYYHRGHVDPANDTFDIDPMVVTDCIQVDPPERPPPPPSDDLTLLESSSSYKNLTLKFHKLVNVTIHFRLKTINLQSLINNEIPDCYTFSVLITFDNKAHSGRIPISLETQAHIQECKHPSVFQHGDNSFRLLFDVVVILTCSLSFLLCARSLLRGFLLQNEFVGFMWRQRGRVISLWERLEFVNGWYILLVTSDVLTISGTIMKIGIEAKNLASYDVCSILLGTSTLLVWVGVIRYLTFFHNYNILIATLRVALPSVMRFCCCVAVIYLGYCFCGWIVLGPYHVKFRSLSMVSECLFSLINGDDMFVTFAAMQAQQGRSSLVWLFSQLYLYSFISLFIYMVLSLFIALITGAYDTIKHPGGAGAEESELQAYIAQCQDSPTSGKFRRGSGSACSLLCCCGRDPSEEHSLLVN
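Agonist activity was taken from a 110 s kinetic Ca2+ dye read on the FDSS after pinning compounds onto TRPML1-DL cells. The cells were seeded at 1,500/well with Tet inducer, incubated about 16 h, then dye-loaded at room temperature.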
CtBP-E1A inh – qHTS Assay for Inhibitors of the CtBP/E1A Interaction; CtBP / adenovirus E1A interaction (AlphaScreen); AlphaScreen GST-E1A/His-CtBP binding, 1536-well; stronger effect = lower value; control for the full effect not named in the record; activity change, % (concentration not given with the values); 340,000 compounds, 0.49% hits; AID 651724, 2012; in the data active means activity change below about -65%; inconclusive means about -30% to -65%; inactive means above about -30%; also: % is scaled to controls: 0 for no effect and ±100 for the full control effect
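GST-E1A and His-tagged CtBP (125 nM each as 5X stock) were preincubated with pin-transferred compound for 2 h at 37 °C in the dark, then glutathione donor and nickel acceptor beads were added for 1 h before AlphaScreen reading.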
PINK1 modulator – A Quantitative High throughput Screen to Identify Chemical Modulators of PINK1 Expression; PINK1 immunofluorescence, high-content cytometry, 24 h; Potency, µM (titrated, usually from 76.6 µM), inactives show top-dose activation (PINK1 increase), hits mostly activators; 410,000 compounds, 0.2% hits; AID 624263, 2012; active = well fitted activation curve with a large enough effect; inconclusive = small, poorly fitted or top-dose-only effect; inactive = flat fitted curve, though single readings scatter; cell line not stated here;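 also: potency is read from the fitted curve at half-maximal effect; % of control where 0% means no effect; nearly all actives have a fitted effect of over 65% in size; a mitochondrial uncoupler was the plate control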
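PINK1 protein level read as immunofluorescence by microplate cytometer in a fixed, stained stable cell line after 24 h exposure to five compound concentrations, with CCCP as control.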
TRPML1 blocker – qHTS for Inhibitors of the Human Mucolipin Transient Receptor Potential 1 (TRPML1) | 390,000 compounds, 0.02% hits | TRPML1-inducible cells, Ca2+ dye fluorescence, FDSS; stronger effect = lower value; inhibition of EC80 agonist-evoked calcium signal | activity change, negative = inhibition, % (concentration not given with the values) | AID 624415, 2012; in the data active means activity change below about -50%; inconclusive means about -30% to -50%; inactive means above about -30%;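 also: stimulus is agonist 54-4 at its EC80 concentration; % is scaled to controls: 0 for no effect and ±100 for the full control effect; the text of the record puts the active cut at -80%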
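TRPML1-DL cells, Tet-induced overnight (~16 h, 37 °C) at 1,500 cells/well, were loaded with Ca8 no-wash dye plus quencher for 45-90 min at room temperature. Compounds were pinned during FDSS kinetic reading; agonist 54-4 at EC80 (4 uM final) then added.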
* hit, by the source's call; ? = inconclusive; nt = not tested or not shown; & = joins results of further samples; [ ] = another dose, or the depositor's remark.

item	Compound	TRPML1 blocker	PINK1 modulator	Six1-Eya2 inh
1	COc1ccc(-c2c(C)c3ccc(O)c(CN4CCCC4)c3oc2=O)cc1	-14	0.5%	nt
2	COc1cc(C2CC(=O)Nc3cc(C)c(C)cc32)cc(OC)c1OC (centres undefined)	2	4.1%	8
3	COc1cccc(N2CCN(c3ncc4c(n3)CCN(Cc3ccc(Br)cc3)C4)CC2)c1	8	-0.2%	nt
4	CC1CCCCN1C(=O)CSc1nc(N)cc(=O)[nH]1 (centres undefined)	2	2.9%	-9
5	COC(=O)c1c(C)oc2ccc(N(C(=O)Oc3ccccc3)S(=O)(=O)c3ccc(C(C)(C)C)cc3)cc12	0	0.7%	nt
6	O=C(COC(=O)CNS(=O)(=O)c1ccccc1)Nc1ncc(Cl)cc1Cl	-6	-0.9%	29
7	CCOc1ccc(C2C(C(=O)Nc3ccc(Cl)cc3)=C(C)Nc3nc(C(F)(F)F)nn32)cc1 (centres undefined)	27	?	nt
8	Cc1nnc(-c2ccccc2)nc1N(C)C	2	3.7%	-8
9	C=C[C@@H]1c2cccc(C)c2N(S(=O)(=O)c2ccc(C)cc2)[C@H](c2ccc(OC(C)=O)cc2)C1(C#N)C#N	44	22%	-9
10	CC1(c2ccc(Cl)cc2)NC(=O)N(CC(=O)c2ccc3c(c2)OCO3)C1=O (centres undefined)	-16	1.8%	-3

item	CtBP-E1A inh	TRPML1 ag	D2 agonist
1	nt	-1.0	nt
2	2	-0.4	-3.3
3	nt	-0.3	nt
4	-1	-0.6	-2.8
5	nt	-0.1	nt
6	nt	-0.7	-5.5
7	nt	0.6	nt
8	1	-0.7	-5.4
9	nt	-0.2	1.2
10	6	5.7	-6.1

The listing continues:
item	Compound	TRPML1 blocker	PINK1 modulator	Six1-Eya2 inh
11	CCCCN(CC(=O)Nc1cccc(S(=O)(=O)N2CCCC2)c1)Cc1nc2ccccc2c(=O)[nH]1	-18	-3.6%	-19
12	CCc1cccc(N(C(=O)c2csnn2)C(C(=O)NC2CCCCC2)c2ccncc2)c1 (centres undefined)	-2	-1.5%	3
13	O=C(CCCN1C(=O)c2ccccc2C1=O)Nc1nc2ccccc2[nH]1	12	2.9%	-2
14	CC(=Nc1ccccc1C(F)(F)F)c1ccncc1	19	-2.1%	1
15	Cc1nn(Cc2ccccc2)c2c1C(c1ccncc1)C(C#N)=C(N)O2 (centres undefined)	9	-1.7%	-7
16	CCOC(=O)c1cc(-c2ccccc2)n(CCCC(=O)Nc2cccc(C)c2)c1C	15	0.6%	nt
17	COc1ccc(N(CC(=O)NCC(C)C)S(=O)(=O)c2ccccc2)cc1	-1	0.9%	-2
18	CCc1ccc2[nH]c(=O)c(CN(CCN(C)C)C(=O)Nc3ccccc3)cc2c1	-8	0.1%	3
19	O=C(NCc1cccs1)c1ccc(N2CCCC2=O)cc1	9	-1.3%	7
20	CN(C)S(=O)(=O)c1ccc2nc(NC(=O)c3cccs3)sc2c1	-3	-3.7%[38.3 µM]	1

item	CtBP-E1A inh	TRPML1 ag	D2 agonist
11	-3	1.0	-2.5
12	5	-0.6	-3.5
13	9	1.0	5.8
14	-1	0.2	0.2
15	1	-0.9	-6.1
16	nt	1.8	nt
17	2	1.9	-1.1
18	-1	-0.4	-3.0
19	0	3.6	-1.1
20	2	1.0	-0.2

The results go on:
item	Compound	TRPML1 blocker	PINK1 modulator	Six1-Eya2 inh
21	COc1ccc(C2(CNC(=O)c3cc(OC)c(OC)c(OC)c3)CCCC2)cc1OC	-2	0.8%	-10
22	CS(=O)(=O)c1ccc(CNC(=O)[C@]2(C(F)(F)F)C[C@H](CCc3ccccc3)CCCO2)cc1	11&9	-0.5%	0
23	CCc1nnc(NC(=O)c2ccc(COc3ccccc3)o2)s1	-8	26%[38.3 µM]	7
24	CC1(C)CC(NC(=S)NC(=O)c2cc(Br)ccc2Cl)CC(C)(C)N1	42	0.6%	6
25	CCc1ccc(C(=O)NNc2cc(Cl)ccc2Cl)cc1	5	4.1%	3
26	CN(C)C(=O)c1cn(-c2ccccc2)c(=O)c2ccccc12	11	-4.6%	4
27	O=C(Nc1nc2ccccc2s1)c1ccc2sc([C@H]3C[C@H](O)[C@@H](CO)O3)nc2c1	nt	-0.6%	-10
28	Cc1ccc(CNC(=O)C2CCCN(S(=O)(=O)c3c(C)noc3/C=C/N(C)C)C2)cc1 (centres undefined)	-9	4.3%	-6
29	O=C(COC(=O)/C=C/c1ccc(F)cc1)NC1CCCC1	9	1.3%	4
30	c1cc(CNCCCN2CCOCC2)ccn1	-4	-0.4%	-1

item	CtBP-E1A inh	TRPML1 ag	D2 agonist
21	-2	-0.4	-2.1
22	-6	1.8&0.4	-4.5
23	4	-0.7	-1.6
24	nt	-0.4	-1.0
25	nt	1.0	3.4
26	-3	-1.0	-1.0
27	-7	-0.3	4.8
28	-6	-0.6	-4.4
29	8	-1.1	4.8
30	9	-0.8	-2.7

Next records.
item	Compound	TRPML1 blocker	PINK1 modulator	Six1-Eya2 inh
31	N#CC1(c2ccccc2)CCC(=O)N1Cc1ccccc1 (centres undefined)	-10	-0.9%	-2
32	O=C(Nc1ccccc1)OCC1COC(c2ccccc2)(c2ccccc2)O1 (centres undefined)	14	7.2%	12
33	C[n+]1cc(-c2ccccc2)oc1-c1ccccc1	6	1.0%	-2
34	CCOc1ccc(CCNC(=O)COC(=O)c2cccnc2Cl)cc1OCC	-8	7.2%	-5
35	O=C(Nc1cccc(Cl)c1)OCCOC(=O)Nc1cccc(Cl)c1	6	?	2
36	CCC(C)N(C(=O)COC(=O)c1nc2nc(C)cc(C)n2n1)C1CCS(=O)(=O)C1 (centres undefined)	-12	4.9%	5
37	S=C(Nc1ccc(Oc2ccccc2)cc1)N1CCOCC1	7	1.7%	2
38	O=C(NCC1COc2ccccc2O1)c1ccc(NC(=O)C2CCCO2)cc1 (centres undefined)	4	-2.0%	1
39	COc1ccc(C)cc1NC(=O)CSc1nnc2ccc(-c3cccnc3)nn12	-12	2.0%	-3
40	COc1ccc(OC)c(S(=O)(=O)NCc2ccccc2)c1	-5	41%[38.3 µM]	9

item	CtBP-E1A inh	TRPML1 ag	D2 agonist
31	-9	0.0	-5.5
32	12	5.2	-0.6
33	5	-0.6	-3.7
34	8	0.7	-2.4
35	-9	1.3	-3.5
36	0	0.5	2.3
37	-5	-1.2	-2.5
38	3	0.8	0.4
39	-23	-0.3	-1.8
40	3	-0.2	-2.3

Limited to PINK1 modulator, for some of the entries so far:
nr	SMILES	PINK1 modulator
35	O=C(Nc1cccc(Cl)c1)OCCOC(=O)Nc1cccc(Cl)c1	?
36	CCC(C)N(C(=O)COC(=O)c1nc2nc(C)cc(C)n2n1)C1CCS(=O)(=O)C1 (centres undefined)	4.9%
37	S=C(Nc1ccc(Oc2ccccc2)cc1)N1CCOCC1	1.7%
38	O=C(NCC1COc2ccccc2O1)c1ccc(NC(=O)C2CCCO2)cc1 (centres undefined)	-2.0%

Additional compounds follow:
item	Compound	TRPML1 blocker	PINK1 modulator	Six1-Eya2 inh
41	Cc1cc(C)c(NC(=O)CNC(=O)COC(=O)Cc2ccccc2C)c(C)c1	5	0.2%	13
42	O=C(Nc1ccc2c(c1)OCO2)c1cc(C2CCCCN2C(=O)c2ccccc2)on1 (centres undefined)	22	0.4%	-15
43	Cc1cccc(OCC(=O)Nc2ccc(C(=O)O)cc2NC(=O)COc2cccc(C)c2)c1	-12	0.7%	0
44	Cc1ccccc1NC(=O)c1cc(=O)c2ccccc2o1	-9	-0.6%	0
45	Cc1cccc(C(=O)OCC(=O)NCc2ccc(Cl)cc2)c1	4	1.9%	9
46	NS(=O)(=O)c1ccc(CCNC(=O)C2(S(=O)(=O)c3ccc(Cl)cc3)CC2)cc1	-16	0.0%	13
47	Cc1ccccc1-c1ocnc1C(=O)Nc1ccccc1NC(=O)c1ccccn1	0	1.1%	-5
48	CC(C)c1ccc(Nc2n[nH]c(=S)s2)cc1	nt	0.1%	1
49	CN(c1ccc(O)cc1)S(=O)(=O)c1ccc2ccccc2c1	19	5.0%	-9
50	CC(CN1CCN(C/C=C/c2ccccc2)CC1)c1ccccc1 (centres undefined)	-6	1.4%	-1

item	CtBP-E1A inh	TRPML1 ag	D2 agonist
41	nt	-0.7	-0.6
42	0	0.0	-1.7
43	5	0.9	-6.0
44	7	0.5	-3.1
45	4	-0.5	-2.7
46	9	1.1	-1.1
47	-12	1.3	1.1
48	3	-1.1	8.1
49	-20	1.8	2.5
50	1	-0.2	-1.6

Another view of some results above.
#46 NS(=O)(=O)c1ccc(CCNC(=O)C2(S(=O)(=O)c3ccc(Cl)cc3)CC2)cc1
- TRPML1 blocker: -16
- PINK1 modulator: 0.0%
- Six1-Eya2 inh: 13
- CtBP-E1A inh: 9
- TRPML1 ag: 1.1
- D2 agonist: -1.1

#47 Cc1ccccc1-c1ocnc1C(=O)Nc1ccccc1NC(=O)c1ccccn1
- TRPML1 blocker: 0
- PINK1 modulator: 1.1%
- Six1-Eya2 inh: -5
- CtBP-E1A inh: -12
- TRPML1 ag: 1.3
- D2 agonist: 1.1

Later entries:
item	Compound	TRPML1 blocker	PINK1 modulator	Six1-Eya2 inh
51	COc1ccc(OCCCC(=O)OCC(=O)Nc2c(C)nn(-c3ccccc3)c2C)cc1	1	-2.0%	1
52	CC1(C)CC(=O)C=C(Nc2cc(-c3ccccc3)[nH]n2)C1	29	-0.2%[38.3 µM]	-1
53	COc1ccc(-c2coc3cc(O)ccc3c2=O)cc1OC	81	1.8%	-4
54	S=c1[nH]nc(-c2n[nH]c3c2CCC3)n1/N=C/C=C/c1ccccc1	22	-0.4%	-15
55	COc1cc(NC(=O)COc2cc(O)c3c(c2)OC(C)(C)CC3=O)cc(OC)c1OC	nt	0.0%	-10
56	CC(C)CNC(=O)c1cccc(NC(=O)C(C)Oc2ccccc2)c1 (centres undefined)	3	1.3%	-8

item	CtBP-E1A inh	TRPML1 ag	D2 agonist
51	1	1.3	3.6
52	-3	-0.5	-4.6
53	0	-0.4	-4.4
54	nt	-0.1	-19
55	-8	nt	6.1
56	nt	-0.5	7.3

Screening results as filed in PubChem.
